Screening data: PubChem BioAssay, several laboratories
FGF22 binding – FGF22 (human) thermal shift binding. Q9HCT0. recombinant FGF22 thermal shift, SYPRO orange fluorescence; percent of sucrose octasulfate shift, DMSO zero. calls only at 9.99 µM. 1.5% of 340,000 active. AID 651658;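 active means melting point raised past a set limit in the mean and every replicate; three in four hits are not shown here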
HNF4A DNA FP – change in binding of human HNF4 alpha to DNA; P41235; HNF4a-FITC DNA binding, fluorescence polarization, 1 h; activity change, % at 10 µM; 0.3% of 360,000 active; AID 1224865; in the data active means activity change above about 30%, passing the limit was not always enough;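 further: controls were the assay level and a saturating level of protein; the project sought stronger binding though the title names inhibitors; some compounds called inactive have numbers as strong as hits; positive values seem to mean higher polarization but the record does not say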
ALR H2O2 inh – inhibitors of human sulfhydryl oxidase ALR; 3.8% of 290,000 active; AID 485317; P55789; inhibition, % (no concentration beside the values); purified ALR, DTT oxidation, H2O2 HRP-luminol luminescence;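 active means mean and each replicate at 75% or more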;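 further: stock transfer was 7.5 nL into about 7.5 µL; 0% = neutral wells and 100% = wells with inactivated enzyme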
Target sequence (P55789 whole entry, looked up): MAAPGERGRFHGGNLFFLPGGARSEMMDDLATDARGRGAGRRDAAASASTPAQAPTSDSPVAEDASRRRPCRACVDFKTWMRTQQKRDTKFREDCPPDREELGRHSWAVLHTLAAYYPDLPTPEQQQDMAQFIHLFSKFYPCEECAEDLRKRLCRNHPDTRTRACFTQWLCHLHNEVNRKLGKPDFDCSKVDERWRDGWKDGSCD
UCH37 DUB inh – blocks the human deubiquitinase UCH37. Q9Y5K5. inhibition, % (no concentration beside the values). 0.33% of 330,000 active. purified proteasome/UCH37, Ub-AMC cleavage fluorescence. AID 588478;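 active means mean of two replicates above 20%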;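 further: 0% = compound-free wells with enzyme and 100% = wells lacking proteasome; stock transfer was 100 nL into about 20 µL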
Target sequence (Q9Y5K5 whole entry, looked up): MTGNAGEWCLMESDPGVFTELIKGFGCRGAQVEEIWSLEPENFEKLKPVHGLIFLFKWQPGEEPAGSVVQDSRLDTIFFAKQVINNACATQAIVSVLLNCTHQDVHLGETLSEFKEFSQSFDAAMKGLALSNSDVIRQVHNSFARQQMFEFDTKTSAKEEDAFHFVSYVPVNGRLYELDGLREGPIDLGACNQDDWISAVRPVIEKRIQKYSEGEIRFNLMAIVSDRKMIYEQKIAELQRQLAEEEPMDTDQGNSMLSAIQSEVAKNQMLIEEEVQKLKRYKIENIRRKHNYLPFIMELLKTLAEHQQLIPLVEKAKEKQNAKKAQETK
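Signal – fluorescence, ex 355 nm, em 460 nm · System – Proteasome-bound UCH37 · Input – 0.15 nM proteasome as dispensed · Timing – 30 min preincubation with enzyme, 25 min cleavage at room temperature · Read-out basis – percent inhibition of cleavage signal versus uninhibited and no-proteasome wells · Medium – Tris-HCl pH 7.4 with ATP-MgCl2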
E coli growth – E. coli growth inhibition. Escherichia coli growth, OD600, 23 h; active compounds read low. AID 1053175. 0.21% of 330,000 active. OD600 absorbance (no concentration beside the values);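 active means OD600 absorbance below the run mean of sample wells minus 3.6 SD, in any replicate, cut at about 0.56 in these data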;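 further: stock transfer was 300 nL into about 60 µL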
B2AR ag – human beta-2 adrenergic receptor agonism by FAP; Am2.2-beta2AR cells, FAP receptor internalization, flow cytometry; reference of the scale not given here; response, % (test concentration not listed); 0.43% of 340,000 active;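 active means response above a set limit, near 3 SD of response in nonfluorescent compounds, cut at about 42% in these data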;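 further: stock transfer was 100 nL into about 11 µL; a reference agonist was the positive control; negative values mostly stem from fluorescent compounds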
Target sequence (P07550 whole entry, looked up): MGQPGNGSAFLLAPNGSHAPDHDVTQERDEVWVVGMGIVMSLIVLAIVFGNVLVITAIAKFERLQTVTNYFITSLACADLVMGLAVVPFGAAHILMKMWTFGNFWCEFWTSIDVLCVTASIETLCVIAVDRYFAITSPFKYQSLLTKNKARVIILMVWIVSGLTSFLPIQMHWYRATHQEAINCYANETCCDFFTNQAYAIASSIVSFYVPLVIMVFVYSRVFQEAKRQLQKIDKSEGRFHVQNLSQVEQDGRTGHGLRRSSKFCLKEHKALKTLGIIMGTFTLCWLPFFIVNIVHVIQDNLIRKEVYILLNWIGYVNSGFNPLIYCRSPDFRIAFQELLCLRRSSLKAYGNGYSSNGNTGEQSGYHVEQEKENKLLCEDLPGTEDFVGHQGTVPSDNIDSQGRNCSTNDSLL
LANA-H2B inh – blocks KSHV LANA binding to histone H2A/H2B. AID 2629. 0.6% of 320,000 active. inhibition, % (test concentration not listed). cell-free LANA-H2A/H2B peptide, fluorescence polarization; in the data active means inhibition mostly above about 10%, no sharp cut-off; inactive means mostly below about 6.7%;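 further: stock transfer was 7.5 nL into about 10 µL; 0% = median of vehicle wells and 100% = median of positive control wells; one replicate is shown; the record names a cut of 25% in any replicate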
* hit, by the source's call; i = inactive; . = no result given.

SMILES | FGF22 binding | HNF4A DNA FP | ALR H2O2 inh | UCH37 DUB inh | E coli growth | B2AR ag | LANA-H2B inh
Cc1ccc(SC(C)C(=O)NCC(C)C)cc1 (centres undefined) | i | -1.4 | -11 | 3.0 | 0.7 | -7 | -9.1
COc1cc(/C=C/C(=O)O)cc(S(=O)(=O)NCCO)c1OC | . | -9.8 | -6 | 1.9 | . | -1 | 2.8
O=C(c1ccc(S(=O)(=O)c2cccc(Cl)c2)c([N+](=O)[O-])c1)N1CCN(Cc2ccccc2)CC1 | i | -1.9 | -7 | 0.2 | 0.67 | 21 | 0.0
COc1ccc2cc(Br)ccc2c1CC(=O)NCC1CCCO1 (centres undefined) | i | 1.6 | -7 | 0.8 | 0.72 | 6 | -2.5
CC1(C)N=C(N)N=C(N)N1c1cccc(C#N)c1 | i | 8.5 | . | . | . | -1 | .
COc1ccc(C(=O)OCCCc2cc3ccccc3c(=O)o2)cc1 | i | -1.6 | -1 | 1.6 | 0.66 | -1 | 0.3
COc1ccc(OC)c(C(=O)COC(=O)CN2C(=O)NC3(CCCCC3C)C2=O)c1 (centres undefined) | i | 0.8 | -3 | 0.8 | 0.7 | -5 | -1.9
COc1ccc(CSc2cccc3cccnc23)cc1[N+](=O)[O-] | i | 2.1 | -60 | 2.0 | 0.72 | 1 | 5.1
Cc1ccc(NC(=O)COC(=O)CN2C(=O)C3CCCCC3C2=O)cc1S(=O)(=O)N1CCOCC1 (centres undefined) | . | 0.1 | -10 | 3.1 | 0.72 | 5 | -5.6
O=C1OCCN1C(=O)[C@H]1[C@H](c2ccc(Cl)cc2)C(c2ccccc2)=NN1c1ccccc1 | i | 1.8 | . | . | . | 5 | .
O=C1COc2cc(O)ccc21 | i | -2.7 | . | 4.6 | 0.65 | -4 | .
CCC(=O)Nc1ccc(C(=O)Nc2cc(C)on2)cc1 | . | -2.3 | -3 | -1.0 | 0.68 | -3 | -1.3
c1ccc(-n2cnc3cc(NCc4cccs4)ccc32)cc1 | . | 2.6 | 97* | -6.8 | 0.66 | -5 | 0.8
CC(=O)N1N=C(c2ccc(C)cc2)OC1c1ccc(Br)cc1 (centres undefined) | i | -1.7 | -8 | 2.5 | 0.69 | -6 | -0.1
Nc1nncn1C(=O)CCCOc1ccccc1 | . | -0.7 | 3 | -1.1 | 0.69 | -5 | -1.5
Cc1cc(C(=O)N/N=C/c2c(C)[nH]c3ccccc23)n[nH]1 | i | -0.4 | . | . | . | 6 | -3.7
COc1cc2c(cc1OC)C(COc1ccccc1OC)N(C(=O)c1ccco1)CC2 (centres undefined) | i | 0.6 | -8 | 6.4 | 0.72 | -16 | 1.5
Cc1ccc(-c2nnn(CC(=O)N(CC(=O)NCC3CCCO3)c3ccccc3)n2)o1 (centres undefined) | i | -1.8 | . | 6.1 | 0.74 | 9 | 1.3
CCOc1ccccc1N(CC(=O)NCc1ccc(OC)cc1)S(C)(=O)=O | . | -1.5 | -7 | 0.1 | 0.7 | 15 | 4.0
CCOC(=O)NC(=O)C(/C=N/c1sccc1C(=O)OC)=C(\C)O | i | -0.8 | 2 | 1.4 | 0.66 | 1 | 3.8
COc1ccc(-c2csc(-n3cccn3)n2)cc1 | i | 3.7 | -6 | 0.4 | 0.65 | 0 | 1.6
CCc1ccccc1NC(=O)N1C2CCCC1CC(NC(=O)C(C)(C)C)C2 (centres undefined) | . | 3.6 | -3 | 1.5 | 0.71 | -3 | -1.1
CCCCC(=O)Nc1cccc(NC(=S)NC(=O)COc2ccccc2Cl)c1 | i | 1.9 | . | 3.3 | 0.71 | -17 | 0.1
CC(C)(C)C1CCc2onc(C(=O)Nc3cccnc3)c2C1 (centres undefined) | i | -0.9 | -5 | 2.7 | 0.71 | 0 | 0.4
COc1ccc(-n2cnc3c(sc4nc(N5CCOCC5)c5c(c43)CCCC5)c2=O)cc1 | . | 8.5 | -1 | -23 | 0.72 | 15 | 2.8

Quoted at random: four compounds from above, in no set order.
SMILES | FGF22 binding | HNF4A DNA FP | ALR H2O2 inh | UCH37 DUB inh | E coli growth | B2AR ag | LANA-H2B inh
Cc1ccc(SC(C)C(=O)NCC(C)C)cc1 (centres undefined) | i | -1.4 | -11 | 3.0 | 0.7 | -7 | -9.1
COc1ccc(C(=O)OCCCc2cc3ccccc3c(=O)o2)cc1 | i | -1.6 | -1 | 1.6 | 0.66 | -1 | 0.3
Cc1ccc(NC(=O)COC(=O)CN2C(=O)C3CCCCC3C2=O)cc1S(=O)(=O)N1CCOCC1 (centres undefined) | . | 0.1 | -10 | 3.1 | 0.72 | 5 | -5.6
Cc1cc(C(=O)N/N=C/c2c(C)[nH]c3ccccc23)n[nH]1 | i | -0.4 | . | . | . | 6 | -3.7

(next part)
SMILES | FGF22 binding | HNF4A DNA FP | ALR H2O2 inh | UCH37 DUB inh | E coli growth | B2AR ag | LANA-H2B inh
COCCN1C(=O)C(O)=C(C(C)=O)C1c1ccc(F)cc1 (centres undefined) | . | -0.5 | -6 | -1.8 | 0.77 | 1 | -1.3
Cc1ccc2cc(C)c3nnc(SCC(=O)Nc4nc5c(s4)CCCC5)n3c2c1C | . | 6.3 | -5 | 0.5 | 0.68 | -6 | 1.2
Cc1cc(C)n(-c2cccc(CN3CCC(CO)(Cc4ccccc4)CC3)c2)n1 | i | -0.7 | -17 | 2.2 | 0.65 | -10 | -4.1
COc1ccc(NC(=O)c2ccccc2C)c(OC)c1 | . | -1.7 | 3 | 0.6 | 0.62 | -14 | -4.3
CCCCNC(=O)Nc1ccc2c(c1)N(C)C(=O)c1ccccc1S2 | i | 1.9 | -3 | 3.6 | 0.65 | -13 | 2.2
N#Cc1ccccc1OCC(=O)Nc1cccc(S(=O)(=O)N2CCCC2)c1 | i | -2.1 | -1 | 4.2 | 0.71 | 10 | -6.1
CCCCNC(=O)N1CCOCCOCCN(C(=O)NCCCC)CCOCC1 | . | 17 | -2 | 2.5 | 0.68 | -8 | 3.1
CC1CCCC(NC(=O)COC(=O)[C@@H]2CC(O)CN2S(=O)(=O)c2ccc3c(c2)OCCO3)C1C (some centres undefined) | i | 1.0 | -9 | 0.7 | 0.71 | -1 | -7.7
O=C(c1ccccc1F)N1CCN(Cc2ccccc2F)CC1 | . | 2.1 | 1 | 5.0 | 0.73 | 3 | -1.5
Cc1c(OCc2ccccc2)c(=O)ccn1Cc1ccc(Cl)cc1 | . | 5.8 | -1 | -1.2 | 0.72 | -4 | -5.6
CCN(CC(=O)Nc1cc(Cl)ccc1C)C(=O)C1COc2ccccc2O1 (centres undefined) | i | 0.1 | . | 2.8 | 0.7 | -3 | 0.4
C=CCNC(=O)COCc1cc(-c2ccc3c(c2)OCO3)on1 | i | 0.3 | -4 | -2.3 | 0.65 | -12 | -2.3
CN(C(=O)CCCN1C(=O)c2ccccc2C1=O)C1CCCCC1 | i | 0.2 | . | 0.4 | 0.65 | -4 | 0.6
N/C(=N\OC(=O)c1ccc(Cl)cc1)c1ccn[nH]1 | i | 1.0 | -2 | 0.6 | 0.65 | -3 | -8.6
COc1cc(NC(=O)c2sc3ncn(CC(=O)N4CCC(C)CC4)c(=O)c3c2C)cc(OC)c1OC | i | 3.3 | -10 | 6.6 | 0.71 | 0 | -0.3
CSc1ccc(C(=O)NC2CCSc3ccccc32)cc1 (centres undefined) | i | -1.9 | 1 | 2.8 | 0.68 | 7 | -1.6
COC(=O)/C(C#N)=C/c1c(N2CCN(c3cccc(Cl)c3)CC2)nc2c(C)cccn2c1=O | i | 4.0 | . | -1.4 | 0.68 | 24 | 0.9
Cn1c(COc2ccc(Cl)cc2)nnc1SCc1ncc(-c2ccccc2)o1 | . | 2.9 | -13 | 2.1 | 0.67 | -10 | 1.2
Cc1cc(C)cc(C(=O)OCC(=O)N2CCCC2)c1 | i | 0.1 | -1 | 4.9 | 0.66 | 5 | 3.1
CC(C(=O)OCC(=O)c1ccc(F)cc1)N1C(=O)C2C3C=CC(C3)C2C1=O (centres undefined) | i | -3.1 | -1 | 2.6 | 0.67 | 1 | 1.9
COc1ccc(-c2[nH]ncc2CN(CC2CCC(=O)N2)C(C)C)cc1F (centres undefined) | i | 3.6 | -8 | 3.2 | 0.69 | -8 | 8.0
CCCc1nnc(NC(=O)NCCN2C(=O)C3C4C=CC(C4)C3C2=O)s1 (centres undefined) | i | 4.7 | -23 | 2.1 | 0.69 | -10 | 2.1
Cc1ccc(Cn2ccc(NC(=O)CCSc3nc(-c4ccco4)cc(C(F)(F)F)n3)n2)cc1 | . | -1.4 | -5 | -0.7 | 0.66 | -9 | -5.6
Cc1cccc(NC(=O)C2CCCN(S(=O)(=O)c3ccc4c(c3)oc(=O)n4C)C2)c1 (centres undefined) | i | 0.9 | -11 | 2.1 | 0.7 | -6 | -1.8
Cc1c(C(=O)Nc2ccc(-n3cnnn3)cc2)oc2ccccc12 | . | -1.3 | -5 | -12 | 0.7 | 5 | -2.7

Compound profiles, as listed above. Order of values: FGF22 binding | HNF4A DNA FP | ALR H2O2 inh | UCH37 DUB inh | E coli growth | B2AR ag | LANA-H2B inh
CCCCNC(=O)N1CCOCCOCCN(C(=O)NCCCC)CCOCC1 in the list: . | 17 | -2 | 2.5 | 0.68 | -8 | 3.1
Cc1ccc2cc(C)c3nnc(SCC(=O)Nc4nc5c(s4)CCCC5)n3c2c1C in the list: . | 6.3 | -5 | 0.5 | 0.68 | -6 | 1.2
CSc1ccc(C(=O)NC2CCSc3ccccc32)cc1 (centres undefined) in the list: i | -1.9 | 1 | 2.8 | 0.68 | 7 | -1.6

Additional records follow:
SMILES | FGF22 binding | HNF4A DNA FP | ALR H2O2 inh | UCH37 DUB inh | E coli growth | B2AR ag | LANA-H2B inh
COC(=O)c1ccccc1S(=O)(=O)N1CCC(c2nc3ccccc3o2)CC1 | . | -0.4 | 6 | 4.6 | 0.65 | -15 | 3.8
Cc1nnc(NC(=O)C2CCN(c3nnnn3-c3ccccc3)CC2)s1 | . | -3.9 | -7 | 5.0 | 0.7 | -2 | 0.4
CC1CN(c2ccccc2)c2nc3c(c(=O)[nH]c(=O)n3C)n2C1 (centres undefined) | i | -0.7 | 16 | 0.9 | 0.66 | 1 | 4.8
CCOC(=O)c1ccccc1OC(=O)CS(=O)c1ccccc1[N+](=O)[O-] (centres undefined) | i | -3.3 | -48 | 2.6 | 0.71 | 1 | -3.2
O=C1NC2=C(C(=O)c3ccccc32)C(c2ccccc2)N1 (centres undefined) | . | -1.4 | 3 | 3.5 | 0.68 | -25 | 2.2
Cc1cc(C)c(N)c(C(=O)O)c1 | i | -1.7 | 10 | -106 | 0.69 | -1 | -5.1
COC(=O)c1cc(=O)nc2sccn12 | . | 0.8 | -1 | -17 | 0.69 | 1 | 0.4
CC[C@@]1(C(=O)OC)N[C@H](CN(C)S(=O)(=O)c2ccc(C(F)(F)F)cc2)[C@@H]2C(=O)N(C)C(=O)[C@@H]21 | i | -0.9 | . | 4.2 | 0.72 | 1 | .
Cc1c(C2=CCN(S(=O)(=O)c3ccc(Cl)cc3)CC2)c2ccccc2n1C | . | 1.1 | -39 | 0.1 | 0.75 | 9 | 0.4
CCOCC(=O)NC1CCc2cc(OC(=O)COCC)c(OC)c(OC)c2-c2ccc(SC)c(=O)cc21 (centres undefined) | i | -2.7 | . | . | . | 40 | .
CC(=O)Nc1ccc(NC(=O)C(C)Sc2n[nH]c(-c3cccs3)n2)cc1 (centres undefined) | i | 2.5 | -1 | 0.4 | 0.65 | -12 | 1.0
O=C(Cc1ccccc1)N1CCN(c2ncccn2)CC1 | i | -0.2 | -4 | 0.8 | 0.7 | 3 | 3.8
Cc1cc(C)nc(-n2nc(C)cc2NC(=O)CN2CCC(C)CC2)n1 | . | -0.9 | 6 | 1.8 | 0.64 | -10 | 0.9
Cc1ccc(C(=O)NCc2ccccn2)cc1S(=O)(=O)N1CCOCC1 | i | 0.4 | -6 | 2.1 | 0.68 | -3 | 2.9
O=C(Cc1csc(Nc2nc(=S)[nH]c3ccccc23)n1)N1CCN(c2cccc(C(F)(F)F)c2)CC1 | i | 5.3 | 6 | -50 | 0.76 | 2 | 4.2
CC(Oc1ccccc1)C(=O)N=Nc1c(O)[nH]c2ccc(Br)cc12 (centres undefined) | i | 5.6 | -8 | -1.1 | 0.68 | 1 | -1.0

Some of the compounds tested. The share of hits here may be higher or lower than overall.
